# Bioassay records as filed in PubChem.
# TRPML1 inh – blocks the human TRPML1 channel. Q9GZU1. TRPML1-inducible cells, Ca2+ dye fluorescence, FDSS; stronger effect = lower value; inhibition of EC80 agonist-evoked calcium signal. activity change, negative = inhibition, % (test concentration not listed). 390,000 compounds, 0.02% hits; in the data active means activity change below about -50%; inconclusive means about -30% to -50%; inactive means above about -30%;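 note: stimulus is agonist 54-4 at its EC80 concentration; % is set by controls: 0 for no effect and ±100 for the full control effect; compound concentration not given in the record; the text of the record puts the active cut at -80%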
#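 Tet-induced TRPML1-DL cells loaded with Ca8 no-wash calcium dye were read kinetically on FDSS. Compound addition was followed by EC80 agonist 54-4 (4 uM final); inhibition was read over 110 s.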
# TRPML1 ag – activates the human TRPML1 channel. Q9GZU1. TRPML1-expressing cells, Ca2+ dye fluorescence, FDSS; host cell line not named in the record; reference of the full effect not given here. activation, % (test concentration not listed). 410,000 compounds, 0.12% hits. AID 624414; in the data active = activation above about 50%; inconclusive = about 30% to 50%; inactive = below about 30%; note: 0% is about no effect; the text of the record puts the active cut at 80%
#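 TRPML1-DL cells, Tet-induced overnight (~16 h, 37 degrees C), loaded 45-90 min at room temperature with Ca8 no-wash calcium dye plus quencher. FDSS fluorescence: 10 s baseline, compound pin-transfer, 110 s agonist read, then EC80 54-4 (4uM final) and 110 s antagonist read.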
# PINK1 modulator – changes PINK1 expression; PINK1 immunofluorescence, high-content cytometry, 24 h; Potency, µM (highest dose often 76.6 µM), without a hit: at the top dose activation (PINK1 increase), most hits filed as activators; 410,000 compounds, 0.2% hits; AID 624263; active = well fitted activation curve with a large enough effect; inconclusive = small, poorly fitted or top-dose-only effect; inactive = flat fitted curve, though single readings scatter; cell line not stated here;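 note: potency is the fitted concentration of half-maximal effect; % of control where 0% means no effect; nearly all actives have a fitted effect of over 65% in size; a mitochondrial uncoupler was the plate control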
#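 Fluorescence from anti-PINK1 antibody, together with nuclear and cell stains, was scanned on a laser-scanning cytometer. Before staining, stable-line cells were incubated 24 hours with compounds at 5 concentrations; primary antibody 12 h at 10 degrees C.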
# Menin MLL FP FL – menin-MLL binding inhibition, fluorescein peptide | 290,000 tested, under 10 active | AID 1766 | FP activity change, % at 61.4 µM | Fluorescence polarization, fluorescein-MLL peptide displacement from menin; inconclusive = falling polarisation curve, or a change in total fluorescence; inactive = total fluorescence flat and polarisation flat or rising; no compound was filed as active; the % refers to the polarisation; negative = inhibition;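 note: % of control where 0% means no effect; inhibitors lower the polarisation; unlabelled MLL peptide was the positive control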
# Sfp inh – Sfp phosphopantetheinyl transferase inhibition | Q9F4F7 | Biochemical Sfp PPTase activity, qHTS | Potency, µM, for the others: max response, negative = inhibition, usual class: inhibitors | 310,000 compounds, 3.5% hits | AID 1490; active = well fitted inhibition curve with a large enough effect; inconclusive = small, poorly fitted or top-dose-only effect, or another doubt; inactive = no such curve, though single readings can be large or run the other way;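 note: the enzyme is Sfp with the accession as filed and its product quenches rhodamine fluorescence; potency is the fitted concentration of half-maximal effect; 0% = enzyme reaction without inhibitor and -100% = no enzyme wells; top concentration of the series not given in the record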
#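 Reaction rates are the 30-min fluorescence difference (ex 525, em 598 nm) in wells containing 15 nM Sfp, 5 uM rhodamine-CoA and 12.5 uM BHQ-2-YbbR at pH 7.6 with 10 mM MgCl2.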
# ClpP mod – qHTS Assay for Activators of ClpP; ATP-dependent Clp protease proteolytic subunit (Bacillus subtilis (strain 168)), P80244; Potency, µM (highest dose often 57.5 µM), without a hit: at the highest dose activity change, negative = active; AID 651965, 2013; 340,000 compounds, 1.9% hits; purified B. subtilis ClpP, FRET peptide cleavage, 20 min; active = well fitted falling curve with a large enough effect; inconclusive = small, poorly fitted or top-dose-only effect; inactive = no such curve, though single readings can be large or run the other way; note: potency is the fitted concentration of half-maximal effect; the source files actives as falling curves though it sought activators and does not explain the sign; nearly all actives have a fitted effect of over 65% in size; many hits overshoot -100%
# Target sequence (P80244 whole entry, looked up): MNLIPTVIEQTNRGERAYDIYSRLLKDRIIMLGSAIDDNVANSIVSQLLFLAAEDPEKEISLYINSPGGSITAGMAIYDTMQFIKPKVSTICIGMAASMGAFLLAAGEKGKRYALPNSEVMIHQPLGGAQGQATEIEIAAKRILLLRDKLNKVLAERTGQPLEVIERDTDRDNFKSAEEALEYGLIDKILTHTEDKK
#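 ClpP 10 microg/mL final, pH 8 Tris/KCl buffer with BSA, glycerol, Tween-20; compound pinned in; FRET-FV substrate; RT 20 min; Ex320/Em430; ΔFRET vs ADEP 5.8 microM, DMSO, no enzyme.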
# TRPV1 potentiator – enhances activation of the human vanilloid receptor TRPV1; Q8NER1; TRPV1-expressing cells, Fluo-8 calcium influx, capsaicin EC20 potentiation; host cell line not named in the record; control for the full effect not named in the record; 320,000 compounds, 0.02% hits; potentiation, % at 8.33 µM; active means potentiation above 80%; inconclusive means 30% to 80%; inactive means below 30%; note: 0% is about no effect
# Target sequence (Q8NER1 whole entry, looked up): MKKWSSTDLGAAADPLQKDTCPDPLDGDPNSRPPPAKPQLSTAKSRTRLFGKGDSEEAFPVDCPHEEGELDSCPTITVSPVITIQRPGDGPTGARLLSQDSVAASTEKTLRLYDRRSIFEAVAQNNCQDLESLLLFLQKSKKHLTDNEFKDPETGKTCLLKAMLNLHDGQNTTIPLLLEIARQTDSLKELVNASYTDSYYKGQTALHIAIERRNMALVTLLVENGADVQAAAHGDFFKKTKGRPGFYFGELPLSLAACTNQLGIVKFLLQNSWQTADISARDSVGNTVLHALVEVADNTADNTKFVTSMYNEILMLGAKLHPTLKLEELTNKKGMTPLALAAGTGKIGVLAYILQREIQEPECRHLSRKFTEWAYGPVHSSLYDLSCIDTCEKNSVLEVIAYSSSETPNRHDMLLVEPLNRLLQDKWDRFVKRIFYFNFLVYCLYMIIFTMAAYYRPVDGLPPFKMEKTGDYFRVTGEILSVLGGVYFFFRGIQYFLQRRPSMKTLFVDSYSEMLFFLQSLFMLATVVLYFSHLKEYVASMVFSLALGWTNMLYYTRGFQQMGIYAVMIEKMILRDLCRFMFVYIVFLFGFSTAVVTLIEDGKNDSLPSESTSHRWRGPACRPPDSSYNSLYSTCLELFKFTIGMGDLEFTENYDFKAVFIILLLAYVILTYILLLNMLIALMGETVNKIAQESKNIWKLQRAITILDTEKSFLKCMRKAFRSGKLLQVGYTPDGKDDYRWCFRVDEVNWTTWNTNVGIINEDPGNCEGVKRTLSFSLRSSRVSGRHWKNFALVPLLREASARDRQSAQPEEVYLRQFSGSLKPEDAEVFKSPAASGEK
#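 TRPV1-expressing cells were cultured overnight at 35.5C and loaded with Fluo-8 calcium dye for 40 to 90 min at room temperature. After a 10 s baseline, compound was added and calcium influx was read kinetically for 3 min (ex 480/em 520 nm).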
# * hit, by the source's call; ? = inconclusive; · = not tested or not shown; [ ] = dose if it differs, or a comment.
Molecule	TRPML1 ag	ClpP mod	Menin MLL FP FL	PINK1 modulator	TRPML1 inh	Sfp inh	TRPV1 potentiator
COc1ccc([C@H]2[C@@H](C#N)[C@H](C#N)N3CCCN23)cc1	0.2	-26%	6.4	-2.1%	-12	4%	11
COc1nccc(-c2ccc(F)cc2)c1C#N	0.7	·	4.2	0.1%	12	20%	11
Cc1nc2cc(Cl)c([N+](=O)[O-])cc2s1	0.4	·	-2.9	-0.4%	12	-3%	-25
Cc1ccc(S(=O)(=O)CCC(=O)OCC(=O)c2ccc(F)cc2)cc1	1.0	1.3%	·	0.9%	10	·	1
CC1=CCC2C(=O)N(c3ccc(C(=O)Nc4ccccc4Cl)cc3)C(=O)C2C1 (configuration not stated)	0.7	-0.3%	3.2	0.2%	-8	4%	-6
C=CCn1cc(C(=O)NCCOC)c(=O)c2cc(S(=O)(=O)N3CCCCCC3)ccc21	4.9	0.0%	3.5	-0.2%	15	-3%	-20
O=C(c1ccnc(Cl)c1)N1CCCC(N2CCN(c3ccccc3F)CC2)C1 (configuration not stated)	0.0	·	0.5	-0.2%	-4	8%	0
O=C(OCc1cc(=O)n2nc(-c3cccs3)sc2n1)c1ccc(F)cc1	-0.5	-11%	·	?	-19	·	·
COc1ccc(C2=NO[C@@H]3C(=O)N(c4c(C)cccc4C)C(=O)[C@H]23)cc1OC	0.6	32%	-1.2	-1.5%	9	9%	2
CC(C)(C)c1ccc(C(=O)Nc2sc3c(c2C#N)CCC(C(C)(C)C)C3)cc1 (configuration not stated)	-0.7	-7.9%	·	0.8%	14	·	·
C#CCOC(=O)C1C2C=CC(C2)C1C(=O)O (configuration not stated)	0.5	-0.8%	1.0	·	-1	-17%	0
Cn1c(=O)c2c(O)c(Cc3ccccc3)c(=O)[nH]c2n(C)c1=O	-1.4	0.2%	3.4	0.9%	6	4%	-27
COCCNC(=O)Cn1nc(-c2ccccc2F)ccc1=O	-1.1	0.9%	-9.2	-1.5%	-3	-3%	-6
Cc1cc(NC(=O)COc2ccccc2C)ccc1NC(=O)c1ccco1	0.3	·	0.3	1.1%	17	14%	-3
O=C(NCCCc1nc2ccccc2n1Cc1c(F)cccc1Cl)C1CCCCC1	0.4	-0.1%	·	3.4%	-8	·	·
CSc1nnc(CCCCCNC(=O)OC(C)(C)C)o1	-0.2	-0.2%	17	3.1%	-7	15%	12
COC(=O)c1c(C)[nH]c(C=Nc2ccc(OC)cc2)c1C	-0.1	·	-3.0	1.7%	3	7%	-1
COc1ccc(NC(=O)c2cc3ccccc3[nH]2)cc1	0.7	-6.9%	-3.4	-0.8%	11	9%	28
CCn1c(SCc2ccc(F)cc2Cl)nc(=O)c2c(C(=O)OC)cc(C3CC3)nc21	1.5	-2.7%	·	6.6%	29	·	·
O=C(CN1C(=O)/C(=C/c2ccccc2F)Sc2ccccc21)N1CCN(c2ccccn2)CC1	5.0	0.3%	-6.6	1.2%	-8	0%	?

# (next part)
Molecule	TRPML1 ag	ClpP mod	Menin MLL FP FL	PINK1 modulator	TRPML1 inh	Sfp inh	TRPV1 potentiator
C=CCn1c(=O)c(C(=O)NC(C)c2ccccc2)c(O)c2ccccc21 (configuration not stated)	2.5	-9.5%	-3.8	8.0%	-10	5%	-11
CN(CC(=O)Nc1ccccc1Br)C(=O)c1ccc(-c2ccc(Cl)cc2)o1	4.5	32µM*	·	?	48	2%	-16
O=C(CNC(=O)C12CC3CC(CC(C3)C1)C2)N1CCCC(C(F)(F)F)C1 (configuration not stated)	0.8	-5.1%	·	-0.7%	7	·	·
Cc1nc2cc(NC(=O)Nc3cccc(F)c3)ccc2n1C	-0.6	-2.4%	-1.8	2.7%	-5	5%	-4
O=S(=O)(NCc1ccc(Cl)cc1)c1ccc2[nH]c3c(c2c1)CCCC3	3.8	?	·	?	31	·	·
O=S(=O)(c1cccc2ccccc12)N1CCN(c2nc(-c3cccs3)nc3ccccc23)CC1	0.8	4.3%	·	4.2%	·	·	·
CCCCN(C(=O)c1ccc(S(=O)(=O)N(C)c2ccccc2)cc1)c1c(N)n(CCC)c(=O)[nH]c1=O	0.4	-2.0%	·	0.3%	-22	·	·
CC(=O)c1cccc(OCC(=O)c2cc(C)n(-c3cc(C)on3)c2C)c1	0.3	0.2%	-0.2	-1.9%	-4	-8%	-1
O=C1c2ccccc2NC(c2ccccc2)N1Cc1ccco1 (configuration not stated)	-0.2	28µM*	4.2	2.3%	-16	1%	-7
O=C(CSc1ccc2nnc(-c3ccccc3)n2n1)NCC1CCCO1 (configuration not stated)	0.8	?	-0.6	-4.5%[38.3 µM]	3	-26%	?
CN1CCN(C(=O)c2ccc(-c3ccc(F)c(F)c3)c3ccoc23)CC1	-0.3	-3.9%	·	3.1%	·	·	·
O=C(Nc1ccccc1Cl)c1cc(C2CCCN(C(=O)c3cccc(O)c3)C2)on1 (configuration not stated)	-0.9	1.1%	·	1.1%	·	·	·
COc1ccc(/C=C/C(=O)OCC(=O)N2CCN(S(=O)(=O)c3ccc(C)cc3C)CC2)cc1OC	0.8	-9.7%	·	-1.6%	-21	·	·
Oc1cccc2c3c(oc12)CCCC3	2.6	2.2%	·	2.5%	30	·	·
Cc1ccc(N2CCCn3c2nc2c3c(=O)n(CC(=O)OCc3ccccc3)c(=O)n2C)cc1C	·	·	3.1	·	·	5%	-34
COc1ccc(OC)c(-c2nc(Nc3ccccc3C)sc2CC(=O)O)c1	2.3	0.0%	·	2.7%	-6	·	·
Cn1cnnc1SCC(=O)Nc1ccc(Cl)c(S(=O)(=O)N2CCOCC2)c1	-0.4	-0.1%	-0.5	-0.2%	5	14%	-4
CC(C)CN(C(=O)COC(=O)CSc1ccccc1F)c1c(N)n(Cc2ccccc2)c(=O)[nH]c1=O	-0.5	-0.8%	·	1.6%	4	·	-2
COC(=O)Nc1ccc(S(=O)(=O)Nc2ccc(C)cc2)cc1	·	·	6.2	·	·	20%	25
Cc1[nH]c2ccccc2c1C(=O)C(=O)N1CC(C)OC(C)C1 (configuration not stated)	-0.3	-1.0%	-8.3	-0.7%	-10	6%	3

# More entries follow:
Molecule	TRPML1 ag	ClpP mod	Menin MLL FP FL	PINK1 modulator	TRPML1 inh	Sfp inh	TRPV1 potentiator
C[C@@H]1CN([C@H](C)CO)C(=O)c2cc(Br)cnc2O[C@@H]1CN(C)Cc1ccc(F)cc1	-0.3	-2.5%	·	2.0%	-20	·	·
CCC(C)Sc1nc2c(c(=O)[nH]c(=O)n2C)n1Cc1ccccc1Cl (configuration not stated)	0.0	0.8%	-4.0	3.1%	28	-3%	6
CN(C)S(=O)(=O)c1ccc2c(c1)N(CC(=O)NCc1ccccc1)C(=O)C1CCCCN21 (configuration not stated)	-1.0	-5.3%	·	-0.3%	-14	·	·
Cc1sc2ncnc(N3CCC(C(=O)Nc4ccc(F)cc4Cl)CC3)c2c1C	-1.6	-1.1%	·	2.8%	13	·	7
Cn1c(=O)c2c(ncn2CCOc2ccc(Br)cc2)n(C)c1=O	0.1	·	1.4	-0.6%	-7	13%	0
CC(=O)c1ccc(NC(=S)N2c3ccccc3CC2C)cc1 (configuration not stated)	0.4	0.3%	2.6	-1.2%	12	-51%	6
O=C(COC(=O)CNC(=O)c1ccccc1)Nc1ccc(Cl)cn1	-1.2	·	·	-1.2%	28	·	·
COc1cc(CCC(=O)N2CCN(c3ccc([N+](=O)[O-])cc3)CC2)cc(OC)c1OC	3.0	-0.9%	-12	-3.6%	-4	5%	-16
CSc1ccc(C#N)cc1NC(=O)c1ccccc1C	0.4	·	-4.9	-2.2%	-14	-7%	1
Cc1ccc(C)c(N2CCN(c3cnn(-c4nc5ccccc5s4)c(=O)c3Cl)CC2)c1	-0.3	2.8%	-4.2	?	-17	3%	-15
COc1ccc(NC(=O)CNS(=O)(=O)c2cccc3nonc23)c(OC)c1	-0.2	-1.7%	1.8	-1.9%	0	5%	9
Oc1cccc(C(Nc2nccs2)c2ccc3cccnc3c2O)c1 (configuration not stated)	2.0	·	0.3	-1.4%	12	8%	1
CCOC(=O)c1[nH]c2ccc(Br)cc2c1NC(=O)CCN1CCC(C)CC1	2.0	-15%	2.1	-2.5%	-15	-2%	-2
O=C(NCCc1ccc(Cl)cc1)c1cnc2n(c1=O)CCS2	-0.7	-2.0%	0.3	1.7%	-8	7%	-15
CCOC(=O)C1=CCC2c3c(c4ccccc4n3C)C(=O)C1N2C(=O)OC(C)(C)C (configuration not stated)	2.4	-2.4%	·	0.2%	-25	·	7
Cc1nn2c(-n3ccnc3)c3c(nc2c1-c1ccccc1)CCC3	1.2	-0.9%	5.3	-4.8%	-10	3%	-8
COc1ccc(CCNC(=O)C(=O)NCC(c2cccs2)S(=O)(=O)c2ccc(C)cc2)cc1 (configuration not stated)	3.8	-0.1%	·	8.9%	39	·	·
O=C(Nc1ccc(F)c(Cl)c1)c1cc(C2CCCCN2C(=O)CCc2ccccc2)on1 (configuration not stated)	0.1	-14%	·	0.7%	·	·	·
CC(C)(C)N(Cc1ccccc1)C(=O)COc1cccnc1[N+](=O)[O-]	-0.7	1.2%	1.1	0.0%	-12	2%	14
O=C(O)c1cc(Br)ccc1NS(=O)(=O)c1cccc2nsnc12	-0.3	-0.8%	-0.3	1.3%	8	7%	9

# Next part (two carried over from the part before).
Molecule	TRPML1 ag	ClpP mod	Menin MLL FP FL	PINK1 modulator	TRPML1 inh	Sfp inh	TRPV1 potentiator
CC(C)(C)N(Cc1ccccc1)C(=O)COc1cccnc1[N+](=O)[O-]	-0.7	1.2%	1.1	0.0%	-12	2%	14
O=C(O)c1cc(Br)ccc1NS(=O)(=O)c1cccc2nsnc12	-0.3	-0.8%	-0.3	1.3%	8	7%	9
COc1ccccc1-n1c(=O)c(C#N)c(-c2ccc([N+](=O)[O-])cc2)c2cc(C(=O)c3ccccc3O)cnc21	1.0	0.2%	3.7	0.2%	8	-1%	3
Cc1c(C(=O)NCc2ccco2)oc2c(Cl)cccc12	2.4	1.5%	·	2.1%	4	·	1
c1csc(COc2ccccc2CNC2CCCCC2)c1	3.5	1.3%	3.0	11%	27	1%	-9
COc1ccc(NC(=S)N2CCC(NC(=O)c3ccccc3C)CC2)cc1	-0.4	·	·	2.2%	13	3%	1

# Rows are unselected; overall some 4.4% were active at least once.
